# Screening results from PubChem.
# D2 agonist – agonists of human D2 dopamine receptor (beta-arrestin); DiscoveRx PathHunter D2 beta-arrestin, luminescence, 90 min; 100% = 57 uM dopamine signal; P14416; actives 0.084% (n = 360,000); activation, % (concentration not given with the values); AID 624465; in the data active = activation above about 40%; inconclusive = about 15% to 40%; inactive = below about 15%; also: compound concentration not given in the record; the text of the record calls up to 30% inactive
#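 DiscoveRx PathHunter D2 beta-arrestin cells (2,100/well) attached overnight, then compound-stimulated 90 min at 37 C in HBSS/10 mM HEPES/0.1% Tween-20 buffer; beta-galactosidase complementation read by luminescence after 1 h at ambient temperature. Dopamine 57 uM final (EC100) as control.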
# Six1-Eya2 inh – Six1/Eya2 interaction inhibition | Q15475+O00167 | AlphaScreen GST-Six1/His-Eya2 binding, biochemical; active compounds read low; control for the full effect not named in the record | activity change, % (no concentration beside the values) | actives 0.56% (n = 360,000) | AID 651725; in the data active = activity change below about -65%; inconclusive = about -30% to -65%; inactive = above about -30%; also: % is scaled to controls: 0 for no effect and ±100 for the full control effect
#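 AlphaScreen with GST-Six1 and His-Eya2 (5X mix: 250 nM and 500 nM), glutathione donor and nickel acceptor beads; buffer 50 mM Tris pH 8.0, 300 mM NaCl, 1 mM TCEP; 1 h at 37 C in the dark.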
# D2 PAM – potentiates the human D2 dopamine receptor allosterically | P14416 | AID 624464 | actives 0.23% (n = 360,000) | DiscoveRx D2 beta-arrestin cells, luminescence, 90 min; 100% = 57 uM dopamine signal | potentiation, % (test concentration not listed); active = potentiation of 50% or more; inconclusive = 30% to 50%; inactive = 30% or less;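 also: compound concentration not given in the record; tested on top of an EC20 dose of dopamine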
#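 PathHunter D2 cells, attached overnight at 37 deg C, received compound in DMSO plus dopamine at EC20 (50 nM final) for 90 min at 37 deg C. Beta-arrestin recruitment was read as luminescence after 1 h with detection reagent at ambient temperature.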
# CtBP-E1A inh – blocks the CtBP interaction with E1A. AlphaScreen GST-E1A/His-CtBP binding, 1536-well; active compounds read low; control for the full effect not named in the record. activity change, % (concentration not given with the values). actives 0.49% (n = 340,000). AID 651724; in the data active means activity change below about -65%; inconclusive means about -30% to -65%; inactive means above about -30%; also: % is scaled to controls: 0 for no effect and ±100 for the full control effect
#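 Steps: dispense buffer (Tris pH 8.0, NaCl 300 mM, TCEP 1 mM, BSA, Tween 20); add 5X protein mix (GST-E1A, His-CtBP, 125 nM each); pin 23 nL compound; 2 h at 37 °C, dark; add 5X beads (50 ug/mL); 1 h; read.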
# TRPV1 potentiator – enhances activation of the human vanilloid receptor TRPV1; potentiation, % at 8.33 µM; TRPV1-expressing cells, Fluo-8 calcium influx, capsaicin EC20 potentiation; host cell line not named in the record; control for the full effect not named in the record; AID 540277; actives 0.02% (n = 320,000); active means potentiation above 80%; inconclusive means 30% to 80%; inactive means below 30%; also: 0% is about no effect
# Target sequence (Q8NER1 whole entry, looked up): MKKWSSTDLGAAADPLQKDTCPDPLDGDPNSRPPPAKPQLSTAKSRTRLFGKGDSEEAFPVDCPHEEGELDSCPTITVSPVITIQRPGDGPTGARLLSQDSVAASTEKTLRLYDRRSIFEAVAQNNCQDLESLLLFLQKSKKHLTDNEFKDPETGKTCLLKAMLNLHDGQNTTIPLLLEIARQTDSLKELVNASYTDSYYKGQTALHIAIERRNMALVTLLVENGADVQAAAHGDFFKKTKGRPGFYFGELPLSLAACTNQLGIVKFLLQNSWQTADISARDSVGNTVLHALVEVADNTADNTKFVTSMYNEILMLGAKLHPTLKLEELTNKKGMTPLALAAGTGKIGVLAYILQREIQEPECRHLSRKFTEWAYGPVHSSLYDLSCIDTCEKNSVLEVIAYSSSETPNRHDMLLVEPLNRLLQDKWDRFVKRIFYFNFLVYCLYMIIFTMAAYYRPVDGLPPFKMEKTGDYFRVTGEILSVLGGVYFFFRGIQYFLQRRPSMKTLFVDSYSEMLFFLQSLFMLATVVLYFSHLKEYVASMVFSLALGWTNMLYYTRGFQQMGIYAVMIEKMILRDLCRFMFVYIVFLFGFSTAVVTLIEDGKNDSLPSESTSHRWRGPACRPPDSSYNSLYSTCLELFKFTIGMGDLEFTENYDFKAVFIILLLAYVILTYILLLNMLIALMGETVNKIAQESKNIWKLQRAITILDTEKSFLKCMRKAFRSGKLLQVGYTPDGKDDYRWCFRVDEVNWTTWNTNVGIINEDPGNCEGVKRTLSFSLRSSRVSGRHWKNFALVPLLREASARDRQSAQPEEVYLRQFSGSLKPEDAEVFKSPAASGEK
#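 Fluo-8 calcium influx in TRPV1-expressing cells, kinetic read (ex 480/em 520 nm). Compound added and read 3 min for agonist activity, followed by capsaicin at EC20 final and 2 min further read for enhancement.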
# Sfp PPTase inh – blocks B. subtilis Sfp PPTase activity; Potency, µM, inactives show max response, negative = inhibition, actives largely listed as inhibitors; AID 1490; Q9F4F7; actives 3.5% (n = 310,000); Biochemical Sfp PPTase activity, qHTS; active = well fitted inhibition curve with a large enough effect; inconclusive = small, poorly fitted or top-dose-only effect, or another doubt; inactive = no such curve, though single readings can be large or run the other way;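 also: the enzyme is Sfp with the accession as filed and its product quenches rhodamine fluorescence; potency is read from the fitted curve at half-maximal effect; 0% = enzyme reaction without inhibitor and -100% = no enzyme wells; top concentration of the series not given in the record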
#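 Buffer: 50 mM Hepes-Na pH 7.6, 10 mM MgCl2, 0.01% Nonidet P-40, 0.01% BSA. Enzyme 15 nM, pre-exposed to compound 15 min; substrates then added and fluorescence change tracked over 30 min.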
# PINK1 modulator – modulators of PINK1 expression | PINK1 immunofluorescence, high-content cytometry, 24 h | Potency, µM (titrated, usually from 76.6 µM), inactives show at the top dose activation (PINK1 increase), usual class: activators | actives 0.2% (n = 410,000) | AID 624263; active = well fitted activation curve with a large enough effect; inconclusive = small, poorly fitted or top-dose-only effect; inactive = flat fitted curve, though single readings scatter; cell line not stated here;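 also: potency is read from the fitted curve at half-maximal effect; % of control where 0% means no effect; nearly all actives have a fitted effect of over 65% in size; a mitochondrial uncoupler was the plate control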
#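 Stable cell line treated 24 h with compounds at 5 concentrations (CCCP controls), then fixed and immunostained for PINK1 plus nuclear and cell stains; PINK1 immunofluorescence quantified by laser-scanning microplate cytometry.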
# * marks the source's active call; other numbers are inactive results; ? = inconclusive; / = no result given. Outcome played no part in choosing rows. Share with any hit: about 3.7%.
SMILES,D2 agonist,Six1-Eya2 inh,D2 PAM,CtBP-E1A inh,TRPV1 potentiator,Sfp PPTase inh,PINK1 modulator
O=C(COc1ccc(/C=N/NC(=O)C(=O)N2CCCCCC2)cc1)Nc1ccccc1Cl,5.7,0,-5,-2,25,4%,?
Cc1ccc(CN(C(=O)c2csnn2)C(C(=O)NC2CCCC2)c2ccco2)cc1 (stereo not given),-3.1,11,-6,3,-12,12%,2.6%
C[C@@H](NC(=O)[C@@H]1Cc2ccccc2CN1)C(=O)Nc1ccc2c(c1)OCCO2,-1.8,4,-12,-4,19,6%,1.4%
CCN1CCN(c2nc3c(c(=O)[nH]c(=O)n3C)n2Cc2ccccc2)CC1,-3.0,0,-6,-4,-11,8%,-0.4%
Cc1nc(SCc2ccccc2)n[nH]1,5.6,1,-1,/,8,4%,0.5%
Cc1ccccc1NS(=O)(=O)c1ccc(OCC(=O)NCc2ccco2)cc1,-0.3,-1,-6,-11,10,2%,-2.9%
COc1cccc(CNC(=O)CCC(=O)N2CCSc3ccccc32)c1OC,-0.8,1,-8,3,-14,14%,2.2%
Cc1cccc(N2C(=O)N3[C@@H]4c5ccccc5OC[C@@H]4[C@@H](c4ccccc4)[C@@]3(C)C2=O)c1,-3.2,4,-12,-13,-2,9%,1.1%
CCN1CCC(O)(C#Cc2ccccc2)CC1,2.0,0,2,16,12,5%,1.6%
O=S(=O)(Nc1nccs1)c1ccc(F)cc1,-7.1,-3,-4,-11,-7,-4%,3.0%
CC(C)(C)N(Cc1ccccc1)C(=O)COC(=O)c1ccc(S(=O)(=O)N2CCOCC2)cc1,-3.1,0,-13,4,/,/,-3.0%
O=C(O)CSc1nnc(-c2ccco2)o1,-1.7,2,-13,3,3,15%,-1.4%
O=C(Nc1cccnc1)OCc1ccccc1,2.1,-13,-9,-5,-16,11%,-0.8%
COc1cc(/C=C/C(=O)N(C)CC(=O)Nc2ccccc2Br)cc2c1OCCO2,-4.0,0,1,-1,3,/,0.0%
O=C(COc1ccccc1N1C(=O)C2C3C=CC(C3)C2C1=O)c1ccccc1 (stereo not given),-1.0,17,-5,8,17,9%,2.8%
CCNc1cc2oc(=O)c(CN3CCOCC3)c(C)c2cc1C,-0.7,6,-43,10,-6,-2%,1.3%
CN(C)CC1CCC/C(=C\c2ccc(OC(=O)/C=C/c3ccc(Cl)c(Cl)c3)cc2)C1=O (stereo not given),2.0,-8,1,-10,/,/,1.7%
COc1cccc(/C=N/NC(=O)CCn2cnc3ccccc32)c1,-20,-2,-8,-1,-7,8%,-0.8%
CCOc1cc(C2C(C#N)=C(N)OC(C)=C2C(C)=O)cc(Br)c1O (stereo not given),-4.7,-7,-30,3,-20,7%,/
CCCCN(C(=O)C1CC(=O)N(c2ccc3c(c2)OCCO3)C1)c1c(N)n(CC(C)C)c(=O)[nH]c1=O (stereo not given),-1.2,2,6,-10,-12,/,-2.8%
CC1(C(=O)NS(=O)(=O)c2cccc(C#N)c2)CCN1C(=O)CC1CCCCC1 (stereo not given),-2.3,10,-7,-25,/,/,-1.1%
CCC(=O)N(CCC(Cc1ccccc1)c1ccc2c(c1)OCO2)Cc1ccccc1F (stereo not given),-9.0,0,-9,0,-10,?,?
O=C(Oc1cc(-c2ccccc2)no1)c1cccc(C(F)(F)F)c1,-1.9,1,-27,12,5,-10%,1.5%
CCOc1ccc(S(=O)(=O)N/N=C(\C)C2CCCCC2)cc1,-0.5,-6,-19,0,-15,-24%,11%
COc1ccc(NS(=O)(=O)c2cccc(C(=O)NNC(=O)CNC(=O)c3ccccc3)c2)cc1,-1.1,13,-11,15,12,11%,0.5%

# Continuation:
SMILES,D2 agonist,Six1-Eya2 inh,D2 PAM,CtBP-E1A inh,TRPV1 potentiator,Sfp PPTase inh,PINK1 modulator
Cc1ccc(SCC(=O)Nc2nccs2)cc1,1.3,-12,0,-10,-19,7%,0.3%
COc1ccc(S(=O)(=O)Nc2c(C)c(C)cc3c2ncn3C)cc1,-5.1,7,-5,-6,-1,11%,1.8%
Cc1occc1C(=O)NCc1nc(-c2ccccc2)no1,0.0,-23,2,-9,-1,15%,0.6%
CCC(C)NC(=O)CCc1c(C)nc2c(c(C)nn2-c2ccccc2)c1C (stereo not given),-4.2,11,-3,/,-18,2%,0.6%
COc1ccc(OC)c(N(CC(=O)NCc2ccccc2)S(=O)(=O)c2ccc(OC)c(OC)c2)c1,-6.1,17,9,0,-1,50µM*,6.9%
CCN1C(=O)[C@H]2[C@@H](c3ccc(C(F)(F)F)cc3)N[C@]3(CCCN(Cc4ccco4)C3=O)[C@H]2C1=O,-6.7,14,-6,7,/,/,3.2%
COc1ccc(C(=O)N2CCN(c3ncnc4c(-c5ccccc5)nsc34)CC2)cc1,-2.3,1,0,-1,8,11%,1.4%
Nc1[nH]n(-c2ccccc2)c(=O)c1N=Nc1ccccc1[N+](=O)[O-],-5.7,-3,-18,-6,12,-3%,11%
O=C(Nc1ccc(F)cc1)c1ccccc1Oc1ccc(C(F)(F)F)cc1[N+](=O)[O-],2.6,-14,15,-20,3,19%,-1.7%
Brc1cc(Br)c(Oc2cc(Br)c(Br)cc2Br)cc1Br,-3.3,-2,-2,0,-5,/,0.7%
COCCn1c(-c2ccc(OC)cc2)nc2ccccc21,-2.3,2,-15,8,-7,16%,-1.0%
CNC(=O)CSCc1c(Cl)cccc1Cl,-3.5,11,-18,8,5,19%,/
Cn1c(=O)oc2cc(S(=O)(=O)N3CCC(C(=O)NCC4COc5ccccc5O4)CC3)ccc21 (stereo not given),-6.3,0,-8,2,/,11%,0.8%
C[C@H](NC(=O)C1CCN(S(=O)(=O)c2ccccc2)CC1)C(=O)NCc1cccnc1,-0.5,0,-24,-6,/,/,0.6%
O=C(Nc1ccnc(-c2cccnc2)n1)c1cccs1,-6.6,-16,-3,-9,-7,12%,1.5%
O=C(Nc1nc(-c2ccc(F)cc2)cs1)C1CCN(C(=O)c2ccc(F)cc2)CC1,3.4,-8,25,-5,-11,/,-0.5%
CC(=O)c1ccc(NC(=O)c2cc(C)no2)cc1,-1.7,-4,-2,6,-1,12%,4.3%
CCOC(=O)N1CCN(C(=O)c2ccc(C)c(S(=O)(=O)N3CCCCC3)c2)CC1,-0.8,-2,6,-4,3,4%,-1.7%
Cc1ccc(S(=O)(=O)N2CCC(C(=O)Nc3nnc(C4CCCC4)s3)CC2)cc1,-0.9,-4,-1,0,4,-4%,?
CC(=O)Nc1ccc(OCC(O)Cn2nc(C)c(Br)c2C)cc1 (stereo not given),-2.7,-1,3,3,9,20%,3.2%
CC(=O)Nc1ccc(NC(=O)c2nc(S(=O)(=O)Cc3ccccc3)ncc2Cl)cc1,-6.5,5,-30,/,-29,-26%,-2.4%
O=C(Nc1cc([N+](=O)[O-])ccc1Cl)c1ccc2c(c1)OCO2,-2.6,2,5,9,2,-27%,5.5%
COC(=O)c1ccccc1NC(=O)CN1CCN(c2ccccn2)CC1,7.5,-3,5,1,-6,20%,0.1%
Cc1ccc2nc(NCCCNC(=O)c3cnccn3)c(C#N)cc2c1,-1.6,-1,4,4,1,9%,5.8%
CC(C)C[C@@H]1CN=C(N)N1C[C@@H]1CCCN1C[C@H](C)N1C[C@@H](Cc2ccccc2)N(CCCC2CCCC2)C1=N,-3.7,6,-19,-9,/,/,-0.7%

# (next part)
SMILES,D2 agonist,Six1-Eya2 inh,D2 PAM,CtBP-E1A inh,TRPV1 potentiator,Sfp PPTase inh,PINK1 modulator
COc1cc(/C=N\NC(=O)CNC(=O)C(c2ccccc2)c2ccccc2)ccc1O,0.9,-8,2,-7,20,-1%,5.9%
COc1cc(OC)nc(NC(=O)NS(=O)(=O)c2ccc(F)cc2)n1,-5.9,5,1,2,-7,22%,0.8%
CCCCOCCOCCOCCCC,-1.5,-4,-1,0,0,/,0.3%
CCOc1ccccc1C(=O)N(Cc1ccc(C)o1)C1CCS(=O)(=O)C1 (stereo not given),1.8,0,-4,0,-9,-2%,1.0%
COc1ccc(OCc2cccc(C(=O)NN)c2)cc1,1.2,-6,0,-13,-34,-4%,-1.6%
COC/C=C/C1=CC2=CC(=O)C(C)(OC(=O)c3cnc4ccccc4n3)C(=O)C2=CN1C1CC1 (stereo not given),6.4,-3,12,-1,/,5%,0.8%
O=C(NC1CCCC1)C(c1cccs1)N(Cc1ccco1)C(=O)c1csnn1 (stereo not given),-1.2,5,5,-1,5,?,-0.6%
C=CCNc1sc(C(=O)c2ccccc2)c(N)c1C#N,4.7,-15,-13,-1,-10,5%,2.3%
Cc1ccc(Nc2nc(C)c3c(n2)CC(C)CC3=O)c(C)c1 (stereo not given),0.6,11,-6,12,/,-9%,-0.1%
N=C1/C(=C\c2ccc(OC(=O)c3ccc(F)cc3)cc2)C(=O)N=C2SC(N3CCCC3)=NN12,-5.6,?,-10,-27,-34,-14%,0.8%
Cc1c(NC(=O)C2CC(c3cccc(Br)c3)=NO2)c(=O)n(-c2ccccc2)n1C (stereo not given),-1.7,-3,10,/,-2,13%,1.5%
CN(C)/C=N/c1[nH]ncc1C#N,-2.7,2,-7,9,-17,9%,-1.0%
CCN(CC)C(=O)C1CC(=O)OC1(C)C (stereo not given),-0.8,4,-9,13,3,-2%,?
Cc1ccc2sc(N(CCCN(C)C)C(=O)c3ccc(S(=O)(=O)N(C)Cc4ccccc4)cc3)nc2c1C,-2.7,?,-41,?,7,/,-2.3%
CC(C)[C@@H]1O[C@H](CCc2ccccc2)CC2=C1C(=O)OC(C)(C)O2,/,13,/,11,/,/,9.8%
COc1ccc(N2CCN(CC(=O)Nc3ccccc3SC)CC2)cc1,-2.9,-22,-6,-23,9,6%,0.9%
CCCOc1ccc(C2NC(=O)CCC2[N+](=O)[O-])cc1 (stereo not given),-1.8,1,?,/,0,7%,-1.2%
O=C(O)CCc1ccc(-c2ccc(Cl)cc2)n1NC(=O)c1ccc(O)cc1,-6.1,5,-3,/,?,-9%,2.1%

# An excerpt from above with just CtBP-E1A inh and TRPV1 potentiator.
Compound,CtBP-E1A inh,TRPV1 potentiator
CCCOc1ccc(C2NC(=O)CCC2[N+](=O)[O-])cc1 (stereo not given),/,0
Cc1ccc(Nc2nc(C)c3c(n2)CC(C)CC3=O)c(C)c1 (stereo not given),12,/
COc1ccc(OCc2cccc(C(=O)NN)c2)cc1,-13,-34
Cc1c(NC(=O)C2CC(c3cccc(Br)c3)=NO2)c(=O)n(-c2ccccc2)n1C (stereo not given),/,-2
